Assay outcomes from PubChem.
GLA inh pH 4.5 – qHTS Assay for Inhibitors of Human alpha-Galactosidase at pH 4.5. Alpha-galactosidase A (Homo sapiens), P06280. purified enzyme, 4-MU-alpha-Gal fluorescence, pH 4.5. activity change, negative = inhibition, % at 105 µM. 230,000 tested, under 10 active. AID 1467, 2008; inconclusive = small, poorly fitted or top-dose-only inhibition, or a rising curve; inactive = flat fitted curve, though single readings scatter; no compound was filed as active;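 also: 0% = full activity with enzyme and -100% = basal without enzyme; dose as in the result columns while the protocol names 77 µM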
Target sequence (P06280 whole entry, looked up): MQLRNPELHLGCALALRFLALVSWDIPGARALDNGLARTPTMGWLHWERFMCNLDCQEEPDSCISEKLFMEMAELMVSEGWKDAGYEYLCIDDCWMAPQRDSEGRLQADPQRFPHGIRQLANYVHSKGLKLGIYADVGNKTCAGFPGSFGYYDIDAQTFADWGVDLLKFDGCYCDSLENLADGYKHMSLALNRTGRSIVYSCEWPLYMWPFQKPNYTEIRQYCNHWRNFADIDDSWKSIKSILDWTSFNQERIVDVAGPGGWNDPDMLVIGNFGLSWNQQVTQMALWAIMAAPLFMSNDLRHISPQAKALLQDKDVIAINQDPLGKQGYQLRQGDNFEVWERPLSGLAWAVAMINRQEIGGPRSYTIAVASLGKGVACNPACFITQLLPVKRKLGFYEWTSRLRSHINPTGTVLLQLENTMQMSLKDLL
Active calls of the source: *; ? = inconclusive; & = joins results of further samples.

GLA inh pH 4.5,SMILES
-8,CC(C)C(N)C(=O)OCCOCn1cnc2c(=O)[nH]c(N)nc21 (stereo not drawn)
-5,COC(=O)[C@@]1(Cc2ccc(F)cc2)[C@H]2c3cc(C(=O)N4CCCC4)n(CCc4c[nH]c5ccccc45)c3C[C@H]2CN1C(=O)c1ccccc1
7,COCCNc1nc(C)nc2c1nc(-c1ccccc1)n2CCN(C)C
12,CC(C)c1cccc2nc3c(c(C(C)(C)C)c12)Cn1c-3cccc1=O
-1,CNC(=O)[C@H](C)/C=C(\c1cccnc1)C(NC(=O)OCc1ccccc1)c1ccc(C(=O)OC)cc1 (stereo partly drawn)
2,COCCNc1nc(-c2ccccc2C)nc2ccccc12
0,Cc1nc(N=Nc2ccc(C(=O)O)cc2)c(COP(=O)(O)O)c(C=O)c1O
2,COc1ccc(CC(N)C(=O)NC2C(CO)OC(n3cnc4c(N(C)C)ncnc43)C2O)cc1 (stereo not drawn)
-7,O=c1cc(-c2cc3ccccc3oc2=O)c2ccc(O)cc2o1
26,CC1CC(OC(=O)c2ccccc2O)CC(C)(C)C1 (stereo not drawn)
2,COC(=O)[C@@]1(Cc2ccccc2)[C@H]2c3cc(C(=O)N(C)C)n(Cc4ccsc4Br)c3C[C@H]2CN1C(=O)c1ccccc1
9,CCCCNc1nc(C)nc2c1nc(-c1ccccc1)n2CCCN(C)C
-3,CC(=O)OCC1OC(n2cnc3c(=O)[nH]cnc32)C(OC(C)=O)C1OC(C)=O (stereo not drawn)
3,CN1CCCN([C@@H](c2ccccc2)c2ccc(Cl)cc2)CC1
-2,COc1ccc(-c2coc3ccc(OC4OC(COC(C)=O)C(OC(C)=O)C(OC(C)=O)C4OC(C)=O)cc3c2=O)cc1 (stereo not drawn)
7,CCCCS(=O)(=O)N1C2=NC(C(=O)OC)=C(C(=O)OC)[C@@H]3N(C)c4ccccc4[C@]23C[C@H]1C(=O)OC
5,CCC(=O)NCCC1CCc2ccc3c(c21)CCO3 (stereo not drawn)
-7,CC12C=CC(=O)C=C1[C@@H](F)CC1C2C(O)CC2(C)C1CC[C@]2(O)C(=O)CO (stereo partly drawn)
3,Nc1ncnc2nc(Cl)[nH]c12
-19,CCCn1c(-c2ccc(F)cc2)nc2c(NCCN(C)C)nc(C)nc21
3,CC#CCN1c2ccccc2[C@]23C[C@@H](C(=O)OC)N(C(=O)COCc4ccccc4)C2=NC(C(=O)OC)=C(C(=O)OC)[C@H]13
-29,S=c1ccss1
-11,O=P(O)(O)C(O)(Cn1ccnc1)P(=O)(O)O
-1,Cc1ccc(C(=O)OC[C@H]2O[C@H](Cl)C[C@@H]2OC(=O)c2ccc(C)cc2)cc1
2,C[C@@]12C(=O)OC(=O)[C@]1(C)[C@H]1CC[C@@H]2O1
-4,COc1ccc(C2=N[C@@H](C(C)C)CO2)cc1
6,CCOC(=O)c1c(C)cc(OC)cc1O
0,CCCCCCCCCCCCCCCC(=O)NCCCC(=O)O
-3,Nc1c[n+](N2CCOCC2)no1
-1,CCOC(=O)C(CCc1ccccc1)NC(C)C(=O)N1C(C(=O)O)CC2CCCC21 (stereo not drawn)
-3,COc1ccc(B(O)O)cc1
-10,O=C(OCc1ccccc1)[C@@H]1COC(c2ccc(Br)cc2)=N1
0&0,CC(C)(C)OC(=O)NCCCC1=CC2=CC(=O)C(C)(OC(=O)CCc3ccccc3)C(=O)C2=CO1 (stereo not drawn)
-4,O=C1CCCC=C1[C@@H](O)CCOC(c1ccccc1)(c1ccccc1)c1ccccc1
2&-8,C=C(COC)C1=CCC(C(=O)OC)(C(=O)OC)[C@@H](C[N+](=O)[O-])c2ccccc21
-2,N[C@@H](Cn1c2c(c(=O)[nH]c1=O)CCC2)C(=O)O
-3,CC(=O)OCC(OC(C)=O)C(OC(C)=O)C(OC(C)=O)C(OC(C)=O)C(COC(C)=O)OC(C)=O (stereo not drawn)
3,COC(=O)N1c2ccccc2C23[C@@H]4CN5CCC[C@]6(CCC12C(O)(C6)C4=O)[C@H]53
-4,O=C(NCc1cccc2ccccc12)[C@H]1C[C@@H]1[C@H](NP(=O)(c1ccccc1)c1ccccc1)c1ccccc1
-9,N[C@H](Cc1ccc(O)cc1)C(=O)O
-4&-4,O=C(O)[C@H]1CN(CCCP(=O)(O)O)CCN1
-1,COc1ccc2c(c1)O[C@H](c1ccc3c(c1)OCO3)[C@@H](OC(=O)NCc1ccco1)C2=O
-7,O=C(O)C1CC[C@@](C(=O)O)(c2ccccc2)c2ccccc21 (stereo partly drawn)
-2,COc1ccc2c(c1)O[C@@H](c1ccc3c(c1)OCO3)[C@H](OC(=O)Nc1ccc(C)c(Br)c1)C2=O
-7,CC1(C)C[C@](C)(C(=O)c2ccccc2)C=C1c1ccccc1
16,CN(C)c1ccc(-c2cc(NCc3ccccc3)ncn2)cc1
-11,CCCCC[C@H](O)/C=C/C1=C(C/C=C\CCCC(=O)O)C(=O)CC1
-8,Cc1cc(NC(=O)Nc2ccc(N(C)C)cc2)c2cc(F)cc(F)c2n1
4,CCN1C(=O)N[C@@H](c2ccccc2)C1=O
-2,O=S(=O)(CCc1ccccc1)c1nnnn1-c1ccccc1

More entries
GLA inh pH 4.5,SMILES
-4,COC(=O)C1=C(C(=O)OC)[C@@H]2N(C)c3ccc(OC)cc3[C@@]23C[C@@H](C(=O)OC)N(S(=O)(=O)c2ccc4c(c2)OCCN4C)C3=N1
-15,Clc1ccc([C@H](Cn2ccnc2)OCc2c(Cl)cccc2Cl)c(Cl)c1
-8,NCCC[C@@H](CC(=O)N[C@@H]1CCNC[C@H]1C(=O)N[C@H](CC(=O)N[C@@H](CCC(=O)O)CC(=O)O)Cc1ccccc1)NC(=O)C[C@H](Cc1ccccc1)NC(=O)[C@@H]1CNCC[C@H]1N
-5,COc1ccccc1CNc1ccnc(-c2ccc3c(c2)OCO3)n1
11,COc1ccc(C[C@@](C)(N)C(=O)O)cc1OC
-9,CN(C)Cc1ccccc1-c1ccc2ncnc(NCc3cccs3)c2c1
8,C[C@H]1[C@@H](O)[C@@H](C)\C=C/C=C\C=C/C=C\C=C/C=C\C=C/[C@@H](O[C@H]2O[C@@H](C)[C@@H](O)[C@@H](N)[C@@H]2O)C[C@@H]2O[C@](O)(C[C@@H](O)C[C@@H](O)[C@@H](O)CC[C@@H](O)C[C@@H](O)CC(=O)O[C@H]1C)C[C@@H](O)[C@H]2C(=O)O (stereo in doubt)
5,COc1cc(-c2coc3cc(O[C@H]4OC(CO)C(O)C(O)C4O)c(OC)c(O)c3c2=O)cc(O)c1OC (stereo partly drawn)
1,CCCCCCCC/C=C\C/C=C\C/C=C\CCCC(=O)O
-1,COC(=O)[C@H]1C[C@@H]1[C@H](NS(=O)(=O)c1ccc(-c2ccccc2)cc1)c1ccccc1
7,CCCn1c(-c2ccc(F)cc2)nc2c(N3CCC(N(C)C)C3)nc(C)nc21 (stereo not drawn)
3&-9,C[C@@](N)(Cc1ccc(O)c(O)c1)C(=O)O
8,C[C@H]1Cc2c(COc3ccccc3)nc3c(c2CO1)CN(S(=O)(=O)c1ccc(Cl)c2nonc12)CC3
3,CC1(C)C2(Cl)C(Cl)C(Cl)C(Cl)(C(Cl)Cl)C1(Cl)C2Cl (stereo not drawn)
11,O=C(O)[C@@H]1CCCNC1
-9&2,C=C(C)C(O)/C=C/c1ccc(C(F)(F)F)cc1 (stereo not drawn)
-3,CCCCCCCCCC(=O)OCC(CO)OC(=O)CCCCCCCCC (stereo not drawn)
-8,C=N[C@H](C(=O)N[C@@H]1C(=O)N2[C@@H]1SC(C)(C)[C@@H]2C(=O)O)c1ccccc1
0,CCCCCN=c1ccn(Cc2ccccc2)c2ccccc12
13,C[C@H]1Cc2c(-c3ccccc3)nc3c(c2CO1)CN(S(=O)(=O)c1ccc(C#N)cc1)CC3
-7,O=C(O)[C@H]1C[C@@H](CP(=O)(O)O)CCN1
9,COCCNC(=O)C1(CC(C)C)C=CCN1C(=O)OC (stereo not drawn)
-1,CCCCCCCC1=Cc2ccccc2C(CC(=O)c2ccccc2)N1C(=O)OC (stereo not drawn)
-17,COC(=O)[C@@]1(Cc2ccccc2)[C@H]2c3cc(C(=O)N(C)C)n(Cc4ccccc4)c3C[C@H]2CN1C(=O)c1ccccc1
0,CNC1(C)C2CCC(C2)C1(C)C (stereo not drawn)
-3,CC(C)[N+]1(C)C2CCC1CC(OC(=O)C(CO)c1ccccc1)C2 (stereo not drawn)
0,C=CCOC(=O)N[C@H](/C(C(=O)OC)=C(\C)NCc1ccccc1)c1ccc(Br)cc1
2,O=S(=O)(c1cccc2c(I)cccc12)N1CCCNCC1
-7,CCS(=O)(=O)N1CCC[C@H]2CN3CCc4cc(OC)ccc4[C@@H]3C[C@@H]21
7,Cc1cccc([C@@H]2CN(C)CCc3c2cc(O)c(O)c3Cl)c1

Given with each value named: part of the list above
CCN1C(=O)N[C@@H](c2ccccc2)C1=O
  GLA inh pH 4.5 = 4

CC(C)(C)OC(=O)NCCCC1=CC2=CC(=O)C(C)(OC(=O)CCc3ccccc3)C(=O)C2=CO1 (stereo not drawn)
  GLA inh pH 4.5 = 0&0

CC1(C)C[C@](C)(C(=O)c2ccccc2)C=C1c1ccccc1
  GLA inh pH 4.5 = -7

CCOC(=O)c1c(C)cc(OC)cc1O
  GLA inh pH 4.5 = 6

More structures follow.
GLA inh pH 4.5,SMILES
2,Cc1nc2[nH]c(=O)[nH]c(=O)c2[nH]1
-10,CCCCC1=CC2=C(c3ccco3)C(=O)C(C)(OC(=O)c3cccs3)C(=O)C2=CO1 (stereo not drawn)
-5,N[C@H](Cc1ccc(Cl)cc1)C(=O)O
-1,CCN(CC)CCC[C@H](C)Nc1c2ccc(Cl)cc2nc2ccc(OC)cc12
-4,CC/C=C\C/C=C\C/C=C\C/C=C\C/C=C\CCC(=O)O[C@H](COCCCCCCCCCCCCCCCC)COP(=O)([O-])OCC[N+](C)(C)C
-12,CO/N=C(\C(=O)NC1C(=O)N2C(C(=O)OCOC(=O)C(C)(C)C)=C(/C=C\c3scnc3C)CSC12)c1csc(N)n1 (stereo not drawn)
-2,CC(CCC(=O)O)C1CCC2C3CC[C@H]4CC(O)CC[C@@]4(C)C3CC[C@@]12C (stereo partly drawn)
6,FC(F)(F)c1ccccc1-c1cncnc1NCCc1cnc[nH]1
-1,Cc1ccccc1-c1nccc(-n2ccnc2)n1
-2,CC(C)[C@@H](CC(=O)N[C@@H]1CCCC[C@H]1C(=O)N[C@H](CC(=O)N[C@@H](CCC(=O)O)CC(=O)O)Cc1c[nH]c2ccccc12)NC(=O)C[C@H](CO)NC(=O)[C@@H]1CCCC[C@H]1N
-2&-4,COc1cc2c(cc1C(F)(F)F)N(C(=O)Nc1cc(F)cc(-c3cccnc3)c1)CC2
-4,CN(C)c1ccc(-c2ccc3ncnc(NCc4ccccc4)c3c2)cc1
-2,CNC1=C(Cl)C(=O)c2ccncc2C1=O
-1,CC1(O)C(=O)C=C2C=C(c3ccsc3)OC=C2C1=O (stereo not drawn)
2,Cc1cccc(-c2cc(=O)c3cc(Br)ccc3o2)c1
0,OCc1ccccc1O
-2,NC1(C(=O)O)CCC1
?,CCc1cccc2nc3c(c([Si](C)(C)C)c12)Cn1c-3cccc1=O
2,CCCCc1c2ccccc2nc2[nH]c3ccccc3c12
-10,O=CN/C=C/c1cc(F)cc(F)c1F

7 compounds picked at random from the list so far:
GLA inh pH 4.5,SMILES
-11,CCCCC[C@H](O)/C=C/C1=C(C/C=C\CCCC(=O)O)C(=O)CC1
8,C[C@H]1Cc2c(COc3ccccc3)nc3c(c2CO1)CN(S(=O)(=O)c1ccc(Cl)c2nonc12)CC3
3&-9,C[C@@](N)(Cc1ccc(O)c(O)c1)C(=O)O
8,C[C@H]1[C@@H](O)[C@@H](C)\C=C/C=C\C=C/C=C\C=C/C=C\C=C/[C@@H](O[C@H]2O[C@@H](C)[C@@H](O)[C@@H](N)[C@@H]2O)C[C@@H]2O[C@](O)(C[C@@H](O)C[C@@H](O)[C@@H](O)CC[C@@H](O)C[C@@H](O)CC(=O)O[C@H]1C)C[C@@H](O)[C@H]2C(=O)O (stereo in doubt)
-3,CC(=O)OCC(OC(C)=O)C(OC(C)=O)C(OC(C)=O)C(OC(C)=O)C(COC(C)=O)OC(C)=O (stereo not drawn)
3,CC#CCN1c2ccccc2[C@]23C[C@@H](C(=O)OC)N(C(=O)COCc4ccccc4)C2=NC(C(=O)OC)=C(C(=O)OC)[C@H]13
-1,CC1(O)C(=O)C=C2C=C(c3ccsc3)OC=C2C1=O (stereo not drawn)

Going on with the list.
GLA inh pH 4.5,SMILES
-1,COCCNc1ccnc(-c2c(C)noc2C)n1
-3,CC1(OC(=O)c2cnc3ccccc3n2)C(=O)C=C2C=C(C3CC3)OC=C2C1=O (stereo not drawn)
0,C=C(NC(=O)C(=C)NC(=O)c1csc(C2=N[C@@H]3c4csc(n4)[C@@H]4NC(=O)c5csc(n5)[C@@H]([C@](C)(O)[C@H](C)O)NC(=O)[C@@H]5CSC(=N5)/C(=C/C)NC(=O)[C@@H]([C@H](C)O)NC(=O)c5csc(n5)[C@]3(CC2)NC(=O)[C@@H](C)NC(=O)C(=C)NC(=O)[C@@H](C)NC(=O)[C@@H]([C@@H](C)CC)N[C@H]2C=Cc3c([C@H](C)O)cc(nc3[C@@H]2O)C(=O)O[C@H]4C)n1)C(N)=O
3,COc1ccc2c(c1OC)C(=O)OC2[C@H]1c2c(cc3c(c2OC)OCO3)CCN1C (stereo partly drawn)
-8,OCC1OC(n2cnc3c(Cl)nc(Cl)nc32)C(O)C1O (stereo not drawn)
-2,CC1(C)S[C@H]2[C@@H](NC(=O)C(N)c3ccccc3)C(=O)N2[C@H]1C(=O)O (stereo partly drawn)
-14,COc1cccc([C@@H]2Oc3ccc(OC)cc3C(=O)[C@H]2OC(=O)NS(=O)(=O)c2ccc(F)cc2)c1
1,CN(C)c1ccc(-c2ccc3ncnc(N4CCNCC4)c3c2)cc1
-5,CC[C@@H](C)CN1C(=O)N[C@@H](c2ccccc2)C(C(=O)OC)=C1C
-16,CN(C)CCCn1cc(C2=C(c3c[nH]c4ccccc34)C(=O)NC2=O)c2ccccc21
-6,COc1ccc(-c2coc3ccc(OC4OC(COC(C)=O)C(OC(C)=O)C(OC(C)=O)C4OC(C)=O)c(OC(C)=O)c3c2=O)cc1 (stereo not drawn)
-3,CC(C)C[C@H](N)CSSC[C@@H](N)CC(C)C

The list is partial. The share of hits here may be higher or lower than overall.
